Source: PubChem
YopH PTP inh: YopH tyrosine phosphatase inhibitors, primary screen, biochemical, fluorescence Ex485/Em525. YopH tyrosine phosphatase [Yersinia enterocolitica]. inhibition, %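 (about 10 µM by stock and volumes)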. 140,000 compounds, 0.16% hits. AID 898, 2007;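 active means inhibition of 50% or more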;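 further: controls were vehicle for no effect and minimum signal wells for full effect; inactives centre near -20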
RecA intein inh: Mtb RecA intein splicing inhibitors, primary screen, biochemical, fluorescence, HTS; Protein RecA (Mycobacterium tuberculosis (strain ATCC 25618 / H37Rv)), P9WHJ3; cell-free RecA intein splicing; inhibition, %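 (about 9 µM by stock and volumes)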; 290,000 compounds, 0.75% hits; AID 2221, 2009; in the data active means inhibition above about 30%; inconclusive means no clear call, values can overlap the other calls;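 further: 0% = vehicle wells and 100% = reference inhibitor control wells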
Target sequence (P9WHJ3 whole entry, looked up): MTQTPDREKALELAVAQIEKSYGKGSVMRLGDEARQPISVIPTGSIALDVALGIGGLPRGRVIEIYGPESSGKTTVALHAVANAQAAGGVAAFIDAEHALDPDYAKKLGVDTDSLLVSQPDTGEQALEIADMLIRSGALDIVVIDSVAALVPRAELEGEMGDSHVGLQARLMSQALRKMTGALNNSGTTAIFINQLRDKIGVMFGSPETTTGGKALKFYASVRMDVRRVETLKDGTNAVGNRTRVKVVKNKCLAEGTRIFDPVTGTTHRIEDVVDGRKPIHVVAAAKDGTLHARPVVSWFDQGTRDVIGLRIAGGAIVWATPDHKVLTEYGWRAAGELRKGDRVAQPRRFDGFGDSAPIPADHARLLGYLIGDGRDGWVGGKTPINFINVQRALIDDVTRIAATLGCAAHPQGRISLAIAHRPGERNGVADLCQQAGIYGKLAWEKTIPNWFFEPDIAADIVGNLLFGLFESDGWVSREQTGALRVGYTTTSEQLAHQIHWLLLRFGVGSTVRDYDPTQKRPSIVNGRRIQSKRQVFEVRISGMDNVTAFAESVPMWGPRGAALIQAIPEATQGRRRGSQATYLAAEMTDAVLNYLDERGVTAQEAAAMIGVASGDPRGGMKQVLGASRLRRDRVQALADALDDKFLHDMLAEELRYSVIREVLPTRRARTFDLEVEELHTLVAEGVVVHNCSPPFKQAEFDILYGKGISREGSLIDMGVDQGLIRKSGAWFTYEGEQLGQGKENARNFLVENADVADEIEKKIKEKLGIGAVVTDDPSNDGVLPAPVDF
Mtb H37Rv: M. tuberculosis H37Rv growth inhibitors, H37Rv strain (AID 1626). inhibition, % at 10 µM, or IC50 in µM where a hit was titrated. M. tuberculosis H37Rv growth inhibition; higher % means a stronger effect. 220,000 compounds, 0.95% hits;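 active means confirmed in a dose series; inconclusive means inhibition above 80% but not taken into the dose series; inactive means below 80% or under 30% at every dose of the series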;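 further: bacteria incubated seven days before Alamar blue readout; 0% = bacteria only wells and 100% = bacteria with antibiotic wells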
Arbovirus anti: antivirals against arbovirus infection, primary screen, cell-based, full library, 10K replicate subset; 200,000 compounds, 0.37% hits; AID 1251, 2008; arbovirus infection cell-based antiviral screen; inhibition, % at 10 µM;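 active means inhibition from about 30%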;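 further: bluetongue infection of BSR cells; cell survival read as ATP light after 72 h; 0% = infected wells without compound and 100% = uninfected wells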
Mtb bLac sens: beta-lactam sensitization of Mtb H37Rv, H37Rv; AID 434955, 2010; M. tuberculosis H37Rv growth with meropenem, percent inhibition; hits of this screen are not shown here; 330,000 compounds, 0.27% hits; inhibition, % at 25 µM;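 active means about 74% or more and at least 40 points above the plate without the antibiotic, then above 30% in a dose series; inconclusive means first-round hits that could not be retested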;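 further: growth measured after seven days incubation then overnight dye step; 0% = bacteria only wells and 100% = bacteria with antibiotic; twin plates without the antibiotic show which effects depend on it; some results filed as inactive read as strong as hits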
Arbovirus anti repeat: also measured in Arbovirus anti; calls as there; inhibition, %; measured here: 10K subset replicate screen; many hits read low in the repeat;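 first of two repeat runs on a subset; 0% = infected and 100% = uninfected wells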
An asterisk follows results filed as active; ? = inconclusive; . = no result given. Some of the compounds tested, so the mix of outcomes need not match the whole.

SMILES | YopH PTP inh | RecA intein inh | Mtb H37Rv | Arbovirus anti | Mtb bLac sens | others
Cc1cccc(C)c1NC(=O)CSc1nnc(Cn2nnc(-c3ccccc3)n2)n1-c1ccccc1 | -31 | 8.4 | -4% | 13 | -3
CCOC(CCc1c(C)nc(NC(C)=O)[nH]c1=O)OCC | . | -0.3 | 2% | . | -4
O=C(/C=C/c1cccc(F)c1)NC1CCN(Cc2ccccc2)CC1 | . | -0.9 | . | . | -3
COc1ccccc1NC(=O)CN1CC(=O)Nc2ccccc21 | . | -1.8 | -11% | 18 | -3
CCN(CC)S(=O)(=O)c1cc(NS(=O)(=O)c2c(Cl)cccc2Cl)ccc1C | 13 | -1.0 | 3% | 14 | 37
CCOP(=O)(Cc1cc(C#N)oc1C)OCC | 14 | -0.9 | 0% | 2 | -3
CCC(C)N1CNc2c(c(=O)[nH]c(=S)n2-c2cccc(C)c2)C1 (centres undefined) | . | -1.0 | 2% | 7 | 3
Cc1c2cnn(CC(=O)NCCCN3CC(C)CC(C)C3)c(=O)c2c(C)n1Cc1ccccc1Cl (centres undefined) | . | 0.9 | . | . | 4
O=C(c1cncc(Br)c1)N1CCCc2ccccc21 | 27 | -0.8 | -6% | -2 | 10
COc1ccc(CC(=O)NC(C)c2nnc(SCCOc3ccc(OC)cc3)n2C)cc1 (centres undefined) | -12 | . | 5% | 4 | -2
COc1ccccc1N1CCN(C(=O)Cc2cccs2)CC1 | -2 | 1.8 | -2% | 6 | -8
CCCC(=O)Nc1nc(C)c(-c2csc(Nc3ccc(Cl)cc3)n2)s1 | 13 | 12 | 64% | -27 | 0
COCCCN(CC(=O)Nc1ccc(N2CCOCC2)cc1)S(=O)(=O)c1ccccc1 | . | -2.2 | 6% | 10 | 6
CCCC(=O)Nc1c2c(nn1-c1ccc([N+](=O)[O-])cc1)CS(=O)(=O)C2 | . | -1.5 | . | . | -4
CC(=O)c1ccc(NC(=O)N2CCCC(C(=O)c3ccc4c(c3)OCO4)C2)cc1 (centres undefined) | . | 1.3 | 7% | -5 | -8
COc1ccccc1CNC(=O)c1cc(C(C)C)nc2ccccc12 | . | 2.8 | . | . | 7
Cc1ccc(NC(=O)C2CCCN(c3cnccn3)C2)c(C)c1 (centres undefined) | . | -0.5 | . | . | -6
CN(C(=O)COC(=O)c1cn(-c2ccccc2)nc1-c1ccccc1)C1CCS(=O)(=O)C1 (centres undefined) | . | 0.8 | 1% | 6 | -4
C/C(=N/Oc1nc(C)cc(C)n1)c1ccc(Br)cc1 | -24 | 1.8 | -4% | -3 | 2
Cc1ccc(N2C(=N)/C(=C3/Nc4ccccc4S3)C(c3ccccc3)C2=O)cc1 (centres undefined) | -29 | . | 9% | -38 | 5

Already shown: an excerpt of the list.
SMILES | YopH PTP inh | RecA intein inh | Mtb H37Rv | Arbovirus anti | Mtb bLac sens | others
CCOC(CCc1c(C)nc(NC(C)=O)[nH]c1=O)OCC | . | -0.3 | 2% | . | -4
O=C(/C=C/c1cccc(F)c1)NC1CCN(Cc2ccccc2)CC1 | . | -0.9 | . | . | -3

Further compounds:
SMILES | YopH PTP inh | RecA intein inh | Mtb H37Rv | Arbovirus anti | Mtb bLac sens | others
N#CCC(=O)N/N=C/c1c2ccccc2cc2ccccc12 | . | -4.8 | . | . | 3
CCOC(=O)N1CCC(N2C(=O)c3ccccc3C2=O)CC1 | -23 | -2.7 | 3% | -1 | -3 | Arbovirus anti repeat=0
O=C(CCN1CCN(S(=O)(=O)c2ccc(Br)cc2)CC1)Nc1ccccc1F | . | -1.1 | 5% | 8 | -7
CC(NC(=O)CSc1nc2sc3c(c2c(=O)n1-c1ccccc1)CCCC3)c1ccccc1 (centres undefined) | 20 | 0.5 | 80% | -5 | 6
CC(=O)c1ccc(NC(=O)CSc2nc(=O)n3cccc(C)c3n2)cc1 | . | -4.9 | . | . | -4
CCCc1cc(=O)oc2c(C)c(OCC(=O)N3CCC[C@@H]3C(=O)O)ccc12 | . | 18 | . | . | 3
O=C(CSc1nc2ccccc2[nH]1)NCCc1ccc(Cl)cc1 | -34 | -1.8 | 3% | 8 | 86
CCC(=O)N1CCc2cc(Br)cc(S(=O)(=O)N3CCC(C(=O)NC(C)C)CC3)c21 | . | -1.1 | . | . | -4
CCCN1CCc2nc(SCC(=O)Nc3ccc(C)c(Cl)c3)[nH]c(=O)c2C1 | . | 3.5 | . | . | 1
O=C(CN1C(=O)c2ccccc2S1(=O)=O)NCCSCc1c(F)cccc1Cl | . | -3.6 | . | . | -7
O=S1(=O)CCC(NC(=S)Nc2ccc(Cl)cc2)C1 (centres undefined) | -24 | 2.5 | -3% | 1 | -4
N#CCC1c2ccccc2CCN1C(=O)Nc1ccc(C(F)(F)F)cc1 (centres undefined) | -32 | -0.5 | 5.9µM* | 8 | 100
COc1ccc(C(C(=O)NC2CCCC2)N(CCCO)C(=O)Cn2nnc(-c3ccc(C)o3)n2)cc1 (centres undefined) | . | 0.3 | . | . | -5
COCC(=O)Nc1cc(OC)c(Cl)cc1OC | -8 | 2.6 | -11% | 2 | -6
CC(=O)Oc1cccc(C(=O)Nc2c[nH]c(=O)[nH]c2=O)c1 | . | 0.2 | -8% | 8 | -2
CCOCCc1c(O)nc(SCC(=O)NCc2ccco2)[nH]c1=O | -14 | -5.4 | -2% | -3 | -10
CCOC(=O)c1ccc(N=C(CC)c2c(O)n(C)c(=O)n(C)c2=O)cc1 | . | -3.3 | ? | . | 95
O=C(CSc1cn(CC(=O)N2CCOCC2)c2ccccc12)N1CCOCC1 | . | 1.4 | . | . | -2
CC(C)C(=O)Nc1ccc(NC(=O)c2cccc(F)c2)cn1 | -46 | 2.2 | 6% | -6 | -9
O=C(C[N+]12CC[N+](CC(=O)c3ccc(F)cc3)(CC1)CC2)c1ccc(F)cc1 | . | -6.6 | . | . | -2

Structures shown so far with an NH in an aromatic ring:
SMILES | YopH PTP inh | RecA intein inh | Mtb H37Rv | Arbovirus anti | Mtb bLac sens | others
CCOC(CCc1c(C)nc(NC(C)=O)[nH]c1=O)OCC | . | -0.3 | 2% | . | -4
CCC(C)N1CNc2c(c(=O)[nH]c(=S)n2-c2cccc(C)c2)C1 (centres undefined) | . | -1.0 | 2% | 7 | 3
O=C(CSc1nc2ccccc2[nH]1)NCCc1ccc(Cl)cc1 | -34 | -1.8 | 3% | 8 | 86
CCCN1CCc2nc(SCC(=O)Nc3ccc(C)c(Cl)c3)[nH]c(=O)c2C1 | . | 3.5 | . | . | 1
CC(=O)Oc1cccc(C(=O)Nc2c[nH]c(=O)[nH]c2=O)c1 | . | 0.2 | -8% | 8 | -2
CCOCCc1c(O)nc(SCC(=O)NCc2ccco2)[nH]c1=O | -14 | -5.4 | -2% | -3 | -10

Additional structures follow.
SMILES | YopH PTP inh | RecA intein inh | Mtb H37Rv | Arbovirus anti | Mtb bLac sens | others
Cc1ccc(C)c(NC(=O)Cn2nnc(-c3ccc(N4CCOCC4)cc3)n2)c1 | . | 4.7 | 4% | -5 | 2
CCOc1ccccc1CN1CCC(CO)(CCOc2ccccc2)CC1 | . | 8.0 | 1% | -10 | 3
CCOc1ccc(C(C)=O)cc1CSC(=N)N | . | -0.6 | -9% | 0 | 1
COc1ccc(NC(=O)c2cc(-c3cccnc3)nc3ccc(C)cc23)cc1OC | -51 | . | -6% | 9 | .
Cc1ccc(NC(=O)CSc2nnc3ccc(-c4cccnc4)nn23)cc1 | . | 1.1 | . | . | -4
COc1ccc(CCNC(=O)CN2CCC(C(N)=O)CC2)cc1 | -7 | -1.0 | -2% | 5 | -1
CCCCNC(=O)CCCCCn1c(=O)[nH]c2cc(OC)c(OC)cc2c1=O | -40 | 0.8 | -3% | 2 | -2
CCC(Sc1nc2ccccc2s1)C(=O)Nc1cc(C)on1 (centres undefined) | -60 | 3.4 | 17% | -9 | 44
Cc1c(Cl)c([N+](=O)[O-])nn1CCCC(=O)Nc1cccc(O)c1 | . | -4.7 | 3% | 8 | -1
Cc1ccc(NC(=O)Nc2cc(Cl)ccc2C2COC(=O)C2=N)cc1 (centres undefined) | . | -0.9 | -1% | 0 | -3
Cc1ccc(-c2ccc(CCC(=O)O)n2NC(=O)c2ccco2)cc1 | -15 | -1.6 | 2% | 7 | -4
Cc1cc(C(=O)Cn2cncn2)c(C)n1CCc1ccc(F)cc1 | -16 | -0.8 | >100µM* | 7 | 62
COc1ccc(CCNC(=O)CCCn2c(SCC(N)=O)nc3cc4c(cc3c2=O)OCO4)cc1OC | . | -0.2 | -3% | 0 | -1
O=C(NC1CC1)C1CCN(C2CCN(C(=O)CSc3ccccc3)CC2)CC1 | . | -0.5 | 5% | . | -6
O=C(N/N=C/c1ccc(N2CCOCC2)o1)c1cccc(F)c1 | -34 | -2.5 | -5% | 10 | 69
Cc1ccccc1N1CC(C(=O)O)CC1=O (centres undefined) | . | -0.5 | -1% | 2 | -7
O=C1C2C3C=CC(C3)C2C(=O)N1c1cccc2ccccc12 (centres undefined) | . | -0.7 | . | . | 3
Cc1ccc(NC(=O)CSc2nnc(-c3ccco3)o2)cc1 | . | 3.2 | -3% | 1 | -5
CCOP(=O)(OCC)C(Nc1ccc(F)cc1)c1ccccc1 (centres undefined) | . | 8.7 | 5% | . | -4
C=CCNC(=O)/C(C#N)=C/c1c(N2CC(C)OC(C)C2)nc2ccccn2c1=O (centres undefined) | -12 | -241 | -11% | 1 | -8
CC(C)c1ccc2c(c1)C(N1CCN(C)CC1)Cc1cccnc1S2 (centres undefined) | . | 0.6 | . | . | -9
Cc1cccc(N2CCN(S(=O)(=O)c3ccc(-c4ccc(=O)[nH]n4)o3)CC2)c1C | . | 2.4 | . | . | -4
COc1ccccc1-c1ccc(Nc2ccc(C(=O)N3CCOCC3)cc2)nn1 | -11 | 1.0 | -5% | -7 | 44
CCc1noc(N)c1C(=O)Nc1ccc(Cl)cc1 | . | 1.5 | . | . | 4
COc1ccc2[nH]c(C)c(CCNC(=S)Nc3cccc(C)c3C)c2c1 | -32 | 0.1 | . | -2 | 1
CCOC(=O)CSc1nc2c(sc(=S)n2-c2ccc(OCC)cc2)c(=O)[nH]1 | . | -2.4 | -8% | 42* | 4
COc1ccc(N2CCN(c3ccc(Cl)nn3)CC2)cc1 | . | 1.0 | -4% | -1 | 0
CCCCCCCC1=CC2=CC(=O)C(C)(OC(C)=O)C(=O)C2=CN1CCc1ccccc1 (centres undefined) | 50* | 8.6 | . | 4 | -4
CCOC(=O)c1c(C)nc2sc(C(N)=O)c(N)c2c1-c1ccc(OC)cc1 | -30 | 9.4 | -3% | 8 | 13
O=C(c1ccncc1)N1CCN(c2ccc3ccccc3n2)CC1 | . | -1.4 | 7% | 5 | -20
O=C1Nc2cc(Cl)c(Cl)cc2N(O)N1c1ccccc1 | -44 | 1.5 | -2% | 5 | 5
CCCCCCCCS(=O)CCC(=O)O (centres undefined) | . | 2.0 | -1% | 22 | -2
S=c1[nH]nc(-c2cc(-c3ccccc3)n[nH]2)n1/N=C/C=C/c1ccccc1 | . | . | 6% | . | -1
CCn1cc([N+](=O)[O-])c(C(=O)N2N=C(c3ccc(OC)cc3OC)CC2c2ccccc2O)n1 (centres undefined) | -35 | 4.6 | 9% | 9 | 2
Cn1nc(C(=O)N2CCCc3ccccc32)c2ccccc2c1=O | . | 4.3 | 7% | -2 | -3
COc1ccccc1C1CC(c2ccccc2)=NN1C(=S)Nc1ccccc1 (centres undefined) | . | 1.4 | 13% | 3 | 7
N#C/C(=C\c1ccc(O)cc1)C(=O)N1CCCC1 | . | 0.1 | -10% | . | -6
Cc1nn(C)c(C)c1CN(Cc1nc(CCC(C)C)no1)C(C)C | . | -2.1 | 0% | 7 | 0
O=c1c2ccc([N+](=O)[O-])cc2ncn1CCOc1ccccc1 | . | -0.6 | -1% | 5 | 2
CC1CCN(c2nc3c(c(=O)[nH]c(=O)n3C)n2Cc2ccccc2)CC1 | -28 | -1.1 | 6% | 6 | -3
O=C(COc1ncnc2sccc12)Nc1ccc(F)cc1F | . | -1.0 | -5% | -5 | 5
O=C(O)c1cc(S(=O)(=O)N2CCOCC2)c(Sc2ccccn2)cc1Sc1ccccn1 | -19 | 0.4 | -10% | 2 | .
CCCCNC(=O)c1ccc(SCC(=O)N(CC)CC)c([N+](=O)[O-])c1 | . | -1.1 | 0% | 7 | -6
